# Bioassay records as filed in PubChem.
# AmpC inh no det: Promiscuous and Specific Inhibitors of AmpC Beta-Lactamase (assay without detergent). P00811. AmpC nitrocefin hydrolysis, absorbance 480 nm, no detergent; potencies from a single point are estimates. Potency, µM (titrated, usually from 28.7 µM), for the others: top-dose activity change, negative = inhibition. 71,000 tested, 1.8% active; active = falling curve, for most hits resting on a single point; inconclusive = weak or doubtful change; inactive = flat or rising curve; note: % of control where 0% means no effect; about half of the hits show no inhibition at the top dose; a quarter of the inactives give rising signals
# Target sequence (P00811 whole entry, looked up): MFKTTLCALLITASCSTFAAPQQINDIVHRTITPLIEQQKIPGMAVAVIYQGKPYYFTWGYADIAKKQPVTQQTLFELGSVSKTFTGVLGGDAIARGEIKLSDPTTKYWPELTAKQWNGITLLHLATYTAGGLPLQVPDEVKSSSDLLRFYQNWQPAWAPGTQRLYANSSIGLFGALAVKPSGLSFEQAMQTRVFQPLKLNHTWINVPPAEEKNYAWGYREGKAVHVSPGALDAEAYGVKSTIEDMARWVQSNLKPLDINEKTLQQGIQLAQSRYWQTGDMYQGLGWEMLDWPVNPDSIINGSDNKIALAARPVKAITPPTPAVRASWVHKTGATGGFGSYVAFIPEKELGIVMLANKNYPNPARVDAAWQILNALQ
#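 Enzyme, pH 7.0 phosphate. Compound titrations were pre-incubated with AmpC for 15 min at room temperature before nitrocefin (stock 800 uM) addition; product formation was recorded at 480 nm every 20 s for 4 min.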
# * hit, by the source's call; ? = inconclusive; & = joins results of further samples; [ ] = dose if it differs, or a comment. Potency is the fitted concentration of half-maximal effect.
nr	molecule	AmpC inh no det
1	O=C(NCCc1c[nH]c2ccccc12)c1cnc2sccn2c1=O	30%
2	O=C(COc1ccc(S(=O)(=O)N2CCOCC2)cc1)Nc1ccc2c(c1)OCCO2	15%
3	COc1cc(OC)c2c(c1)OC(c1ccc(OC)c(OC)c1)C(O)C2=O (centres undefined)	71%
4	COc1ccc(NS(=O)(=O)c2ccc(OC)c3ccccc23)cn1	1%
5	COC(=O)c1ccccc1Nc1cc(C)nc2nc(C)nn12	14%
6	COc1ccc(OC)c(N=CC2=C(O)CC(C)(C)CC2=O)c1	23%
7	CCOc1ccccc1NC(=O)N1CCC(NC(=O)c2ccccc2C)CC1	18%
8	CSCC[C@H](NC(=O)OC(C)(C)C)c1nnc(SCc2ccc(F)cc2)o1	27%
9	COc1cccc(CNn2c(-c3cccc(C)c3)nc3ccccc3c2=O)c1O	39%
10	Cc1cc(C)c2oc(-c3ccc(Cl)c(NC(=O)c4ccc(C#N)cc4F)c3)nc2c1	11%
11	O=C(CSc1nc(-c2ccco2)cc(C(F)(F)F)n1)NCCc1ccccc1	62%
12	O=C(c1cccs1)N1CCN(C(=O)N2CCOCC2)CC1	-1%
13	O=C(NCC1CCCO1)C1CC(=O)N(C2CCCCCC2)C1 (centres undefined)	7%
14	COc1ccccc1CNc1ccnc(-c2ccc(C(=O)N(C)C)cc2)n1	93%
15	Cc1cc(C(=O)CSc2nnc(Cc3ccccc3)o2)c(C)n1Cc1ccc2c(c1)OCO2	-22%
16	COCCNc1nc(-c2ccccc2CN(C)C)nc2ccccc12	12%
17	COc1ccc(N(CC(=O)N2c3ccccc3CC2C)S(=O)(=O)c2c(C)nn(C)c2C)cc1 (centres undefined)	156%
18	Cc1nc(CNS(=O)(=O)c2ccc(Oc3ccccc3)cc2)cs1	1%
19	NCC12CC3CC(C1)CC(CN)(C3)C2	-12%
20	CCCOc1ccc(C(=O)N2CCCC2C(=O)O)cc1 (centres undefined)	-3%
21	C#CCN1C(=O)C(O)(CC(=O)c2ccc(OC)c(OC)c2)c2ccccc21 (centres undefined)	14%
22	COc1ccc(CNc2cc(-c3ccccc3Cl)ncn2)c(OC)c1	58%
23	CC(NC(=O)CC(O)(C(F)(F)F)C(F)(F)F)c1ccccc1 (centres undefined)	-2%
24	O=S(=O)(Nc1nc(CN2CCOCC2)nc2sc3c(c12)CCCC3)c1cc(F)ccc1F	129%
25	Cn1c(=O)oc2cc(S(=O)(=O)N3CCCC3)ccc21	-3%
26	CCCc1ccc(C(C)NC(=O)c2cnccn2)cc1 (centres undefined)	22%
27	CCCCn1c(O)c(C(C)=NCCCN(C)C)c(=O)[nH]c1=O	5%
28	O=C(c1ccc(-c2ccccc2)cc1)N1CCN(c2ncccn2)CC1	94%
29	COC(=O)c1cc(OC)c(OC)cc1NC(=O)CCCCCN1C(=O)CCC1=O	82%
30	CC(C)CC(c1nnnn1C(C)(C)C)N1CCN(C2CCCC2)CC1 (centres undefined)	9%
31	COc1ccccc1S(=O)(=O)Cc1ccc(C(=O)N2CCN(c3ccccn3)CC2)o1	4µM*[single pt active]
32	CCn1cc(C(=O)Nc2ccc(NC(=O)c3ccco3)cc2)c(=O)c2ccc(C)nc21	24%
33	COc1cccc2cc(C(C)=O)c(=O)oc12	-9%
34	NC(=O)c1c(-c2ccccc2)oc2ccc(O)cc12	-4%
35	CN1CCN(CC(=O)Nc2sc3c(c2C#N)CCC(C(C)(C)C)C3)CC1 (centres undefined)	74%
36	c1csc(-c2nc3nc4ccccc4nc3n2Cc2ccc3c(c2)OCO3)c1	14%
37	CCCC(=O)Nc1cccc(C(=O)Nc2nccs2)c1	-8%
38	O=C(c1ccco1)N1CCN(C(c2ccccn2)c2nnnn2C2CCCC2)CC1 (centres undefined)	34%
39	COc1ccc(-c2noc(-c3ccccc3C(=O)Nc3cccnc3)n2)cc1	36%
40	Cc1ccc(OCCC(=O)OCC(=O)Nc2ccc(Cl)cn2)cc1	?
41	CCn1c(Cc2ccccc2)nnc1SCC(=O)Nc1nc(C)c(C)s1	0%
42	Cn1c(=O)oc2cc(S(=O)(=O)NCCC(=O)NC3CCCc4ccccc43)ccc21 (centres undefined)	-11%
43	COc1cccc(NC(=O)c2ccccc2-c2nc(-c3ccc(F)cc3)no2)c1	6%
44	CCc1c(O)c2c(c(O)c1C(C)=O)C(=O)c1c(cc(O)c(C(=O)O)c1C(=O)O)C2=O	-17%[5.75 µM]
45	COC(=O)N1CC=CC1(C)C(=O)NCc1cc(F)cc(C(F)(F)F)c1 (centres undefined)	15%
46	CCOc1ccc(-n2c(COc3ccccc3)nnc2SCC(N)=O)cc1	84%
47	Clc1ccc(NC2=NCCC2)cc1Cl	-10%
48	O=C(OCC(=O)N1CCN(C(=O)c2ccco2)CC1)C1=COCCO1	9%
49	Cc1ccc(N)cc1CN1CCCC1=O	-1%
50	CC(C)(C)OC(=O)N1CCC[C@@H]1C(=O)N1CCC(C(=O)O)CC1	0%
51	O=C(NCCN1CCOCC1)c1noc2c1CCc1ccccc1-2	34%
52	COc1cc2[nH]c(=S)n(NC(=O)CC(C)C)c(=O)c2cc1OC	0%
53	N#CCC(=O)N1CCn2c1nc1ccccc12	-16%
54	Cc1cc2nc(SC(C)C(=O)O)[nH]c2cc1C (centres undefined)	-1%
55	O=C(c1cccc(Cl)c1)N(Cc1cccs1)C1CCS(=O)(=O)C1 (centres undefined)	19%
56	COC(=O)c1cc(NCc2ccccc2F)ccc1N1CCOCC1	82%
57	COc1ccc(NC(=O)Cn2nnc(C(=O)NCc3ccccc3)c2N)cc1Cl	-1%
58	COCCCNC(=O)CCn1c(=O)c2ccccc2n(CC(=O)Nc2cc(Cl)ccc2C)c1=O	35%
59	CC(=O)Nc1ccc(C(=O)CSc2nnnn2C(C)C)cc1	8%
60	CN(C)c1nc(N)nc(CSc2n[nH]c(-c3ccccc3)n2)n1	-6%

# Remaining list, next part
nr	molecule	AmpC inh no det
61	COc1ccccc1NC(=O)c1cc(S(=O)(=O)N2CCOCC2)ccc1Cl	30%
62	O=C(CCCn1c(=O)[nH]c2cc(Cl)ccc2c1=O)NCCCN1CCCC1	-1%
63	COc1ccccc1C(c1nnnn1C(C)(C)C)N1CCCCCC1 (centres undefined)	46%
64	CCCCn1c(N)c(N(CCC(C)C)C(=O)COC(=O)c2ccco2)c(=O)[nH]c1=O	12%
65	CC(=O)Nc1ccc2nc(-c3cccnc3)[nH]c2c1	-16%
66	Cc1ccc(C)c(NC(=O)NCc2ccc(Cl)cc2)c1	4%[5.75 µM]
67	Cc1cc(C)nc(/N=C2\NC(=O)CC(C(=O)O)N2c2ccc(Oc3ccccc3)cc2)n1 (centres undefined)	20%
68	CCOC(=O)CNC(=O)CSc1nc2ncc(Br)cc2[nH]1	-1%
69	COc1ccc(N2CCN(c3oc(COc4ccc(Cl)cc4Cl)nc3C#N)CC2)cc1	5%
70	CC1CCN(c2nnc(N)s2)CC1	5%
71	COC(=O)[C@H](N)CCCN=C(N)N[N+](=O)[O-]	-14%
72	CCOC(=O)CSc1nc2c([nH]c3ccccc32)c(=O)n1C	-8%
73	N#Cc1ccccc1NC1=CC(=O)CCC1	9%
74	COc1ccc(C(=O)c2ccc(OC)cc2O)c(O)c1	-15%
75	c1ccc2c(c1)CCCN2Cc1nnc2n1CCCCC2	21%
76	CCOc1ccc2nc(SCC(=O)NC3CCS(=O)(=O)C3)[nH]c2c1 (centres undefined)	-12%
77	O=C1c2ccccc2N[C@H](c2cc(Cl)cc(Cl)c2O)N1CCc1ccccn1	-1%[5.75 µM]
78	COc1ccc(C(=O)N2CCC3(CCN(CC(C)C)CC3)CC2)cc1	17%
79	O=C1Nc2ccccc2C1=Nc1cccc2ncccc12	-5%[5.75 µM]
80	CCC(=O)Nc1ccc2c(c1)C(=O)N(C1CCCCC1)C2=O	4%
81	N#CC(C#N)=Cc1ccc([N+](=O)[O-])c(O)c1	-13%
82	CC(C)NC(=O)CSc1nc2ccccc2n1CC(=O)N1CCc2ccccc21	90%
83	Cc1ccc2cc(C#N)c(N3CCCN(S(=O)(=O)c4ccccc4)CC3)nc2c1	0%
84	CC1CCN(c2nc3c(c(=O)[nH]c(=O)n3C)n2Cc2ccccc2)CC1	0%
85	O=C(O)c1cc(S(=O)(=O)N2CCOCC2)c(Sc2ccccn2)cc1Sc1ccccn1	-2%
86	OC1(c2ccc3c(c2)OCO3)CCN(Cc2ccccn2)CC1	-9%
87	CC(C)CN1CCC2(CC1)CCN(S(=O)(=O)c1ccccc1)CC2	-5%
88	CCC(C)NS(=O)(=O)c1ccc(OCC(=O)NCc2cccnc2)cc1 (centres undefined)	5%
89	CCCC[C@@H]1C[C@H]1C(NC(=O)c1ccccc1)c1ccc(C(=O)OC)cc1 (some centres undefined)	4%
90	CN1C(=O)CCS(=O)(=O)[C@H]1c1ccc(Cl)cc1	8%&5%
91	COc1cccc(CN2C(=O)CN(C3CCCCC3)C(=O)C2c2ccc(F)cc2)c1 (centres undefined)	36%
92	Cc1ccc(C(=O)Nc2ccccc2NC(=O)c2ccc(C)o2)o1	-1%
93	CCOC(=O)N1CCC(N2C(=O)c3ccccc3C2=O)CC1	16%
94	CCOCCc1c(O)nc(SCC(=O)NCc2ccco2)[nH]c1=O	-10%
95	COCC(=O)Nc1cc(OC)c(Cl)cc1OC	8%
96	CC(C)C(=O)Nc1ccc(NC(=O)c2cccc(F)c2)cn1	-7%
97	CCCCNC(=O)CCCCCn1c(=O)[nH]c2cc(OC)c(OC)cc2c1=O	20%
98	COc1ccc(CCNC(=O)CN2CCC(C(N)=O)CC2)cc1	4%
99	Cc1cc(C(=O)Cn2cncn2)c(C)n1CCc1ccc(F)cc1	41%
100	Cc1ccc(-c2ccc(CCC(=O)O)n2NC(=O)c2ccco2)cc1	-8%
101	COc1ccc(NC(=O)N2CC3(CCN(C(=O)c4cccc(F)c4)CC3)C2)cc1	-4%
102	COc1ccc(-n2c(C)cc(C(=O)Cn3nnc4ccccc4c3=O)c2C)cc1	33%
103	CCN(CC)S(=O)(=O)c1ccc(NC(=O)c2cccc3c2C(=O)N(CCOC)C3)cc1	37%
104	Cn1cc(-c2nc3cncnc3n(Cc3ccc(F)cc3)c2=O)c2ccccc21	4%
105	Cn1c(Cc2ccccc2)nnc1SCC(=O)Nc1ccc2c(c1)OCCO2	3%

# From entry 91 as far as 94, as listed above:
nr	molecule	AmpC inh no det
91	COc1cccc(CN2C(=O)CN(C3CCCCC3)C(=O)C2c2ccc(F)cc2)c1 (centres undefined)	36%
92	Cc1ccc(C(=O)Nc2ccccc2NC(=O)c2ccc(C)o2)o1	-1%
93	CCOC(=O)N1CCC(N2C(=O)c3ccccc3C2=O)CC1	16%
94	CCOCCc1c(O)nc(SCC(=O)NCc2ccco2)[nH]c1=O	-10%

# (next part)
nr	molecule	AmpC inh no det
106	Cc1cccc(C)c1NC(=O)CSc1nnc(Cn2nnc(-c3ccccc3)n2)n1-c1ccccc1	62%
107	COc1ccccc1N1CCN(C(=O)Cc2cccs2)CC1	42%
108	OC(c1ccc(Cl)cc1)(c1ccc(Cl)cc1)C(Cl)(Cl)Cl	-13%
109	CCCC(=O)c1cn(CC(=O)OC)c2ccccc12	17%
110	Cc1nc(NC2CCCCC2)c2nc(-c3ccccc3)n(CCCN3CCCCC3C)c2n1 (centres undefined)	129%
111	CCNC(=O)CN(CCc1ccccc1)S(C)(=O)=O	2%
112	CCC(=O)Nc1cccc(NC(=O)CSc2nnnn2Cc2ccccc2)c1	5%
113	O=C(COc1ncnc2ccccc12)NCc1ccc2c(c1)OCO2	-3%
114	CC(C)(C)c1ccc(NC(=O)NCc2ccco2)cc1	-2%
115	CCc1nnc(NC(=O)CSc2nnc(-c3ccccc3O)n2-c2ccc(C)cc2C)s1	15%
116	O=C(c1ccco1)N1CCN=C1SCc1ccccc1Cl	5%
117	CCCCc1cc(=O)oc2cc(OCC(=O)N(CC)CC)ccc12	62%
118	COc1cccc(-c2cncnc2-n2ccnc2)c1	-16%
119	COc1ccc(N2CCN(C(=O)C3CCC(Cn4c(=S)[nH]c5ccccc5c4=O)CC3)CC2)cc1 (centres undefined)	43%
120	COc1ccc(CN(CC(=O)NC2CCCC2)C(=O)c2onc(C(N)=O)c2N)cc1	3%

# In a second layout: results already given.
[107] COc1ccccc1N1CCN(C(=O)Cc2cccs2)CC1
  AmpC inh no det: 42%

[108] OC(c1ccc(Cl)cc1)(c1ccc(Cl)cc1)C(Cl)(Cl)Cl
  AmpC inh no det: -13%

# Further records:
nr	molecule	AmpC inh no det
121	O=C(O)c1ccc(N[C@H](c2ccccc2)c2ccc3cccnc3c2O)cc1	-14%[5.75 µM]
122	CCC(=O)N1CCCc2cc(S(=O)(=O)N3CCN(c4ncccn4)CC3)ccc21	5%
123	COC(=O)c1cc(OC)c(OC)cc1NC(=O)CSc1nnc(-c2cccnc2)n1C	29%
124	O=C(CCCC(=O)NCC1CCCO1)NCC1CCCO1 (centres undefined)	0%
125	O=c1c(-c2ccco2)[n+]([O-])c2ccccc2n1OCc1ccccn1	11%
126	N#Cc1ccc(OC(=O)c2ccc(N=C(N)N)cc2)cc1	-8%[5.75 µM]
127	CC(C)OCCCNC(=O)CN1CCN(Cc2ccccc2Cl)C1=O	22%
128	Cc1oc(-c2ccc(F)cc2)cc1-c1nn2c(-c3ccco3)nnc2s1	35%
129	CCc1cccc2c1NC(=O)[C@]21[C@@H]2C(=O)N(Cc3ccccc3)C(=O)[C@@H]2[C@@H]2CCCN21	48%
130	COc1ccc(Oc2ncc3nc(C)c(=O)n(C)c3n2)cc1	6%
131	CCN=C(N)CSS(=O)(=O)O	7%[5.75 µM]
132	O=C(CCCn1c(=S)[nH]c2cc3c(cc2c1=O)OCO3)N1CCc2ccccc2C1	?

# A portion of the library; the hit share may differ from the screen's.
